Bioassay records as filed in PubChem.
ClpP mod – qHTS Assay for Activators of ClpP. ATP-dependent Clp protease proteolytic subunit (Bacillus subtilis (strain 168)), P80244. purified B. subtilis ClpP, FRET peptide cleavage, 20 min. Potency, µM (titrated, usually from 57.5 µM), for the others: at the highest dose activity change, negative = active. 340,000 tested, 1.9% active; active = well fitted falling curve with a large enough effect; inconclusive = small, poorly fitted or top-dose-only effect; inactive = no such curve, though single readings can be large or run the other way; further: potency means the concentration at half of the fitted maximal effect; the source files actives as falling curves though it sought activators and does not explain the sign; nearly all actives have a fitted effect of over 65% in size; many hits overshoot -100%
Target sequence (P80244 whole entry, looked up): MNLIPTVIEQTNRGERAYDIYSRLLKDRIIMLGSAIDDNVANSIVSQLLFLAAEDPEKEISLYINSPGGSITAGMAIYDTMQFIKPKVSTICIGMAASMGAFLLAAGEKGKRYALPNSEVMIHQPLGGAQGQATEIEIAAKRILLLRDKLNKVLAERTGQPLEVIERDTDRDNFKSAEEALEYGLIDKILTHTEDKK
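Buffer: 100 mM Tris/HCl pH8, 100 mM KCl, 0.05% low protease BSA, 2.5% glycerol, 0.01% Tween-20. ClpP 10 microg/mL final; 20 min RT; delta FRET normalized to ADEP and DMSO controls.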
Sfp PPTase inh – qHTS Assay for Inhibitors of Bacillus subtilis Sfp phosphopantetheinyl transferase (PPTase); 4'-phosphopantetheinyl transferase ffp (Bacillus subtilis), Q9F4F7; 310,000 tested, 3.5% active; Biochemical Sfp PPTase activity, qHTS; Potency, µM, inactives show max response, negative = inhibition, hits mostly inhibitors; AID 1490, 2009; active means well fitted inhibition curve with a large enough effect; inconclusive means small, poorly fitted or top-dose-only effect, or another doubt; inactive means no such curve, though single readings can be large or run the other way;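 further: the enzyme is Sfp with the accession as filed and its product quenches rhodamine fluorescence; potency means the concentration at half of the fitted maximal effect; 0% = enzyme reaction without inhibitor and -100% = no enzyme wells; top concentration of the series not given in the record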
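Reaction rates are the 30-min fluorescence difference (ex 525, em 598 nm) in wells containing 15 nM Sfp, 5 uM rhodamine-CoA and 12.5 uM BHQ-2-YbbR at pH 7.6 with 10 mM MgCl2.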
TRPML1 blocker – qHTS for Inhibitors of the Human Mucolipin Transient Receptor Potential 1 (TRPML1); Mucolipin-1 (Homo sapiens), Q9GZU1; TRPML1-inducible cells, Ca2+ dye fluorescence, FDSS; active compounds read low; inhibition of EC80 agonist-evoked calcium signal; activity change, negative = inhibition, % (no concentration beside the values); 390,000 tested, 0.02% active; AID 624415, 2012; in the data active means activity change below about -50%; inconclusive means about -30% to -50%; inactive means above about -30%;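 further: stimulus is agonist 54-4 at its EC80 concentration; on the % scale 0 is the no-effect control and ±100 the full control effect; compound concentration not given in the record; the text of the record puts the active cut at -80%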
Target sequence (Q9GZU1 whole entry, looked up): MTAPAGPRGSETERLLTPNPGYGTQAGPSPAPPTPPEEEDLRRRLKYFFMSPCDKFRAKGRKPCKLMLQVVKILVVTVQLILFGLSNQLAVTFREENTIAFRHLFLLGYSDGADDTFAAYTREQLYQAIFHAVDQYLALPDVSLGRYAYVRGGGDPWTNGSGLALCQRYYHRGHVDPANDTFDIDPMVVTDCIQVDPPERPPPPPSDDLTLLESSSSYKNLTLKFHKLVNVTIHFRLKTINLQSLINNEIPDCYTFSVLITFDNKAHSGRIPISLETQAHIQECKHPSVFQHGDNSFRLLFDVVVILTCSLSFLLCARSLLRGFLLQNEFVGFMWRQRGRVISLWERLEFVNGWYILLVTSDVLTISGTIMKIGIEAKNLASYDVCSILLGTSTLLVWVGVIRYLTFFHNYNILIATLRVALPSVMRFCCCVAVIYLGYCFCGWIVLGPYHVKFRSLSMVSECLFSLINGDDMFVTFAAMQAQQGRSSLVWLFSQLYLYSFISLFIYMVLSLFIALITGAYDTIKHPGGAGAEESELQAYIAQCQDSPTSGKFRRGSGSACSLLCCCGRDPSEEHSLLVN
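Calcium fluorescence in TRPML1-DL cells induced overnight with Tet: a 110 s read after compound pin addition, then a 110 s antagonist read after challenge with 54-4 at 4 uM final (EC80).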
PINK1 expr mod – A Quantitative High throughput Screen to Identify Chemical Modulators of PINK1 Expression | Potency, µM (top dose mostly 76.6 µM), for the others: at the highest dose activation (PINK1 increase), most hits filed as activators | PINK1 immunofluorescence, high-content cytometry, 24 h | 410,000 tested, 0.2% active; active = well fitted activation curve with a large enough effect; inconclusive = small, poorly fitted or top-dose-only effect; inactive = flat fitted curve, though single readings scatter; cell line not stated here;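 further: potency means the concentration at half of the fitted maximal effect; % of control where 0% means no effect; nearly all actives have a fitted effect of over 65% in size; a mitochondrial uncoupler was the plate control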
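Measures PINK1 amount and localization on or inside mitochondria by immunofluorescence. Stable cells get compounds at 5 concentrations for 24 hours before fixation and staining; CCCP controls included.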
TRPV1 potentiator – HTS Assay for Compounds that Act as Potentiators of the Vanilloid Receptor 1; Transient receptor potential cation channel subfamily V member 1 (Homo sapiens), Q8NER1; TRPV1-expressing cells, Fluo-8 calcium influx, capsaicin EC20 potentiation; host cell line not named in the record; control for the full effect not named in the record; potentiation, % at 8.33 µM; 320,000 tested, 0.02% active; active means potentiation above 80%; inconclusive means 30% to 80%; inactive means below 30%; further: 0% is about no effect
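Cells expressing TRPV1 were dye-loaded with Fluo-8 and read kinetically: 10 s baseline, 3 min after compound (agonist portion), then 2 min after EC20 capsaicin (allosteric enhancer portion). Calcium-bound dye fluorescence at 480/520 nm.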
TRPML1 agonist – qHTS for Agonists of the Human Mucolipin Transient Receptor Potential 1 (TRPML1) | 410,000 tested, 0.12% active | activation, % (no concentration beside the values) | Mucolipin-1 (Homo sapiens), Q9GZU1 | AID 624414, 2012 | TRPML1-expressing cells, Ca2+ dye fluorescence, FDSS; host cell line not named in the record; reference of the full effect not given here; in the data active = activation above about 50%; inconclusive = about 30% to 50%; inactive = below about 30%; further: 0% is about no effect; the text of the record puts the active cut at 80%
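Kinetic FDSS Ca2+ read in Tet-induced TRPML1-DL cells (ABD Ca8 dye plus quencher, 45-90 min RT loading): baseline, then compound, then 110 s agonist window; EC80 agonist 54-4 at 4uM final added afterwards for a 110 s antagonist window.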
Menin MLL FP FL – qHTS Assay for Inhibitors Targeting the Menin-MLL Interaction in MLL Related Leukemias: Competition With Fluorescein Labeled MLL-derived Peptide; 290,000 tested, under 10 active; FP activity change, % at 61.4 µM; Fluorescence polarization, fluorescein-MLL peptide displacement from menin; inconclusive = falling polarisation curve, or a change in total fluorescence; inactive = total fluorescence flat and polarisation flat or rising; no compound was filed as active; the % refers to the polarisation; negative = inhibition;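 further: % of control where 0% means no effect; inhibitors lower the polarisation; unlabelled MLL peptide was the positive control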
Numbers without * were called inactive; ? = inconclusive; · = not tested or not shown; [ ] = another dose, or the depositor's remark. Not a hit list. About 4.4% of those tested had a hit in this group.

SMILES | ClpP mod | Sfp PPTase inh | TRPML1 blocker | PINK1 expr mod | TRPV1 potentiator | TRPML1 agonist | Menin MLL FP FL
O=C(CCCC(=O)c1ccccc1)NCCc1ccccc1 | · | 14.8% | 12.8 | -2.3% | -0.7 | -0.8 | 1.4
OC(c1ccc(-c2ccccc2)cc1)c1ncc(-c2ccc(F)cc2)[nH]1 (configuration not stated) | 1.0% | · | · | ? | · | 0.7 | ·
CCc1ccc(CN2CCC(n3nccc3NC(=O)c3ccccc3C)CC2)cc1 | -0.7% | 4.3% | -10.4 | 0.9% | 1.8 | 0.1 | ·
COc1ccc(C(=O)OC(C(=O)c2ccccc2)c2ccccc2)cc1 (configuration not stated) | -0.9% | 1.0% | 9.9 | -1.2% | 7.6 | 3.2 | 0.9
COc1ccc(NC(=O)CN2C(=O)C(C)Oc3ccccc32)cc1 (configuration not stated) | 1.8% | 8.9% | 2.6 | 11.5% | 6.6 | 0.2 | -0.1
CCC(C)(C)n1nnnc1CN1CCC(NC(=O)c2ccc(Br)cc2)CC1 | -0.8% | 7.4% | 6.8 | 4.4% | -13.4 | 2.1 | 1.8
O=C(C[n+]1cccc(CNC(=O)c2ccc(OC(F)F)cc2)c1)Nc1ccc(F)cc1 | -7.0% | -3.6% | -10.2 | 0.4% | -1.0 | 0.3 | -1.0
Cc1cc(NC(=O)c2ccccc2F)nc2c1c(=O)oc1ccccc12 | · | 2.5% | -7.2 | 2.3% | -23.7 | -0.2 | -1.7
Cc1cccc(C)c1NC(=O)CN(C)S(=O)(=O)c1ccc2c(c1)n(C)c(=O)c(=O)n2C | ? | · | 5.9 | 0.8% | · | -0.1 | ·
C=C(C)C1CC=C(C)/C(=N\NC(=O)CCC(=O)Nc2ccc(C)c(C)c2)C1 (configuration not stated) | · | 10.0% | 5.8 | 1.7% | 22.4 | 1.3 | -0.4
Cn1cc(C(=O)c2ccccc2)cc1-c1nc2ccccc2n1C | -7.1% | -3.4% | -9.5 | 0.1% | -6.0 | -0.4 | 1.9
Cc1ccc(CNC(=O)C2CCCN(S(=O)(=O)c3ccc4c(ccn4C)c3)C2)cc1 (configuration not stated) | 0.9% | · | 23.6 | -0.1% | · | 0.2 | ·
COc1ccccc1N(C)S(=O)(=O)c1ccc(C(=O)OCC(=O)NCC(F)(F)F)cc1 | · | 9.6% | -2.3 | 1.6% | -4.0 | -0.7 | -0.9
CC(Sc1nnc(-c2ccccc2F)o1)C(=O)Nc1ccc(N2CCOCC2)cc1 (configuration not stated) | -3.7% | · | -9.0 | -0.9% | -8.1 | 0.1 | ·
O=C(Oc1ccc(F)cc1)c1ccc2c(=O)n3c(nc2c1)CCC3 | -6.1% | · | 16.9 | -0.3% | 13.8 | 1.2 | ·
O=S(=O)(NC1=NCCCCC1)c1ccccc1Cl | -1.2% | 13.9% | · | -0.5% | -15.4 | · | -0.8
Cc1ccc(N=C2NC(=O)/C(=C/c3cccn3C)S2)c(C)c1 | · | 8.2% | 0.1 | 14.9% | · | 0.8 | 6.0
O=C(O)c1ccc2c(c1)C(=O)N(C(Cc1ccccc1)C(=O)O)C2=O (configuration not stated) | 1.2% | -15.4% | 3.1 | · | 3.9 | 0.1 | -1.8
Nc1cc2ccncc2c2ccccc12 | 3.8% | -12.2% | -1.0 | -1.1% | -3.9 | 2.5 | 1.9
Cc1cn([C@H]2C[C@H](O)[C@@H](CCC(=O)NCc3cccc4ccccc34)O2)c(=O)[nH]c1=O | -0.9% | · | 7.3 | 1.2% | · | 0.6 | ·
CCOc1ccc(CCNC(=O)c2nccnc2C(=O)O)cc1OCC | -0.4% | -9.5% | · | 0.4% | 11.8 | · | 0.0
CS(=O)(=O)N1N=C(c2ccc(Br)cc2)CC1c1cccs1 (configuration not stated) | 5.5% | 17.1% | -0.1 | -0.6% | 2.6 | 2.1 | 4.9
CC(=O)Nc1ccc(OCC(O)Cn2c3ccccc3c3ccccc32)c(C)c1 (configuration not stated) | -7.1% | -0.7% | -4.7 | -3.8%[38.3 µM] | 28.2 | 1.2 | -0.1
Cc1ccc(Cl)cc1NC(=O)CNC(=O)N1CC(=O)Nc2ccccc21 | -0.8% | 18.9% | 3.5 | 0.1% | -11.5 | 0.0 | -5.3
Cc1cccc(-c2noc(-c3ccccc3NC(=O)C3CC(=O)N(c4ccccc4C)C3)n2)c1 (configuration not stated) | -8.1% | · | 22.9 | -0.7% | · | -0.2 | ·
Nc1ccc2oc3ccc(N)cc3c(=O)c2c1 | -2.8% | 7.5% | -5.0 | -0.7%[38.3 µM] | -1.0 | -0.3 | -3.0
COc1ccc(S(=O)(=O)N2CC=C(C(=O)Nc3ccc(NC(C)=O)cc3)CC2)cc1 | · | 10.5% | 6.2 | 7.2% | ? | 0.2 | -5.3
CC(C)Oc1ccc2ccccc2c1CNC[C@H]1O[C@@H](n2ccc(N)nc2=O)[C@H](O)[C@@H]1O | -2.0% | · | -15.0 | 1.0% | · | -0.5 | ·
CN1CCN(c2ccccc2NC(=O)COc2ccc(Br)cc2)CC1 | -0.3% | -0.9% | 45.9 | -4.8%[38.3 µM] | 11.5 | 0.0 | 2.2
CCCOc1ccc(CNCCCOCC)cc1OC | -0.4% | -7.0% | 10.1 | 0.2% | -4.6 | -0.5 | 3.0
Cc1cccc2cc(CN(Cc3ccc(F)cc3)C(=O)N(C)C)c3nnnn3c12 | -4.6% | 3.4% | -5.3 | -0.2% | -10.2 | -0.5 | 2.3
O=C(NC(=S)Nc1cccc(CO)c1)c1ccc(-c2ccccc2)cc1 | 3.1% | -63.8% | 14.4 | 2.3% | 1.6 | 2.7 | 2.3
COc1ccccc1CN(C)C(=O)CN1CCN(S(=O)(=O)c2ccc3c(c2)OCCCO3)CC1 | 1.7% | · | -3.8 | -1.2% | 2.1 | -0.1 | ·
N/C(CSc1ccc(Cl)cc1)=N\S(=O)(=O)c1ccc(Cl)cc1 | · | 12.3% | -11.0 | 2.8% | 12.0 | -1.1 | 0.6
COc1cccc(CC(=O)Nc2nc3c(s2)C(=O)CC(C)(C)C3)c1 | · | 5.1% | -0.2 | 8.6% | 4.5 | -0.1 | 5.0
O=C(CCN1C(=O)C2CC=CCC2C1=O)Nc1cccc(Cl)c1 (configuration not stated) | -0.7% | 7.9% | -4.2 | -2.3% | 5.2 | 0.4 | ·
O=C(C=Cc1ccc2c(c1)OCO2)C=Cc1ccc2c(c1)OCO2 | 1.7% | · | -2.0 | 4.4% | · | 3.0 | ·
C=CCN1C(=O)/C(=c2\sc3nc(=O)c(Cc4ccccc4Cl)nn3c2=O)c2ccccc21 | 1.8% | 11.2µM* | 2.7 | -2.3% | 25.5 | -0.7 | -1.0
Cc1ccc(C)c(OCC(O)CN2CCc3ccccc3C2)c1C (configuration not stated) | -0.1% | 10.5% | · | 1.2% | 9.4 | · | 4.1
Cc1c2cnccc2c(C)c2c1oc1ccccc12 | ? | · | 13.8 | -6.9% | · | 3.3 | ·
COc1ccc(-c2cc(C(=O)Nc3cc(Cl)ccc3OC)no2)cc1 | 1.0% | 13.2% | 25.8 | 0.7% | -5.3 | -0.9 | -0.6
COC(=O)c1cc(S(=O)(=O)NCCCc2ccco2)c[nH]1 | -1.7% | -4.2% | -11.6 | 0.2% | -1.8 | -0.4 | -0.5
CCOC(=O)N1CCN(C(=O)C2CCC(=O)N(Cc3ccc(Cl)cc3)C2)CC1 (configuration not stated) | 95.4% | 13.7% | 13.3 | -0.5% | -3.5 | 0.6 | ·
CCOC(=O)N1CCN(C(=O)c2ccccc2CCc2ccccc2)CC1 | -0.9% | 3.2% | 2.1 | 1.5% | 13.6 | -0.1 | 3.5
O=C1CC(c2ccccc2)=Nc2ccccc2N1 | -0.1% | -11.4% | -7.1 | · | 4.3 | 0.6 | 0.3
C/C(=C\C(=O)Nc1cc(C)on1)c1ccccc1 | 0.6% | 3.7% | -14.0 | 1.2%[38.3 µM] | 29.0 | 0.7 | -0.1
COc1ccc(-c2csc(=Nc3ccccc3)n2CCO)cc1F | 0.1% | · | 33.5 | 3.3% | · | 0.4 | ·
COc1cc(C)c(S(=O)(=O)N2CCN=C2c2ccccc2)cc1C | 0.5% | 2.9% | 6.6 | 0.9% | -8.3 | 1.1 | -2.0
COc1ccc(CCNC(=O)Cc2c(C)c3cc4c(C)coc4c(C)c3oc2=O)cc1 | -8.4% | · | 9.3 | 1.6% | · | 1.3 | ·
CSc1ccccc1NC(=O)CN(C)CC(=O)Nc1cccc(Br)c1 | · | 11.4% | -11.9 | 1.2% | -1.0 | -0.3 | 3.4

(listing goes on)
SMILES | ClpP mod | Sfp PPTase inh | TRPML1 blocker | PINK1 expr mod | TRPV1 potentiator | TRPML1 agonist | Menin MLL FP FL
Cc1ccc(C)c(NC(NC(=O)c2ccccn2)C(Cl)(Cl)Cl)c1 (configuration not stated) | -1.5% | 10.6% | 3.2 | 2.3% | -9.3 | 0.6 | -5.3
O=C(CSc1nc(=O)n2ccccc2n1)N1CCCCCC1 | -3.0% | · | -5.0 | 3.4% | 8.9 | -0.3 | ·
CCc1ccccc1NC(=O)CN(c1cccc(OC)c1)S(C)(=O)=O | -4.4% | 18.1% | 20.0 | -1.4% | 1.8 | 1.7 | 2.7
C=CCn1c(Cc2c(C)[nH]c3ccccc23)nnc1SCC(=O)NCc1ccc(F)cc1 | 0.6% | 1.9% | -17.4 | -0.3% | -0.8 | 0.7 | 0.9
Cc1ccccc1-c1cnc(C(O)c2ccc(C(C)(C)C)cc2)[nH]1 (configuration not stated) | -3.3% | · | · | 5.7% | · | -0.4 | ·
CC(=O)N1CC(C)Sc2ccc(S(=O)(=O)NCc3ccc(Cl)cc3)cc21 (configuration not stated) | -0.7% | 7.3% | -11.4 | 0.3% | -3.1 | -0.9 | 2.2
O=c1[nH]n(-c2ccccc2)c(=O)c2ccccc12 | -2.7% | -2.6% | -4.5 | -0.9% | -2.1 | -0.6 | 1.7
Cc1cc(C)n(Cc2cnc(N3CCOCC3)s2)n1 | -6.7% | 15.7% | 32.5 | -0.2% | 28.9 | -0.2 | 0.2
